Mtb betalactam – beta-lactam sensitization of Mtb H37Rv | M. tuberculosis H37Rv growth with meropenem, percent inhibition; hits of this screen are not shown here | inhibition, % at 25 µM | 0.27% of 330,000 active | AID 434955;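 active = about 74% or more and at least 40 points above the plate without the antibiotic, then above 30% in a dose series; inconclusive = first-round hits that could not be retested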;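 also: growth measured after seven days incubation then overnight dye step; 0% = bacteria only wells and 100% = bacteria with antibiotic; twin plates without the antibiotic show which effects depend on it; some results filed as inactive read as strong as hits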
YopH PTP inh – blocks Yersinia enterocolitica YopH tyrosine phosphatase | fluorescence Ex485/Em525 | inhibition, %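 (about 10 µM by stock and volumes)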 | 0.16% of 140,000 active | AID 898;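 active = inhibition of 50% or more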;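 also: controls were vehicle for no effect and minimum signal wells for full effect; inactives centre near -20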
Arbovirus inh – arbovirus infection inhibition. arbovirus infection cell-based antiviral screen. inhibition, % at 10 µM. 0.37% of 200,000 active. AID 1251;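 active = inhibition from about 30%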;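 also: bluetongue infection of BSR cells; cell survival read as ATP light after 72 h; 0% = infected wells without compound and 100% = uninfected wells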
RecA intein inh – inhibitors of M. tuberculosis RecA intein splicing. P9WHJ3. 0.75% of 290,000 active. AID 2221. inhibition, %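 (about 9 µM by stock and volumes)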. cell-free RecA intein splicing, fluorescence; in the data active = inhibition above about 30%; inconclusive = no clear call, values can overlap the other calls;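 also: 0% = vehicle wells and 100% = reference inhibitor control wells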
Target sequence (P9WHJ3 whole entry, looked up): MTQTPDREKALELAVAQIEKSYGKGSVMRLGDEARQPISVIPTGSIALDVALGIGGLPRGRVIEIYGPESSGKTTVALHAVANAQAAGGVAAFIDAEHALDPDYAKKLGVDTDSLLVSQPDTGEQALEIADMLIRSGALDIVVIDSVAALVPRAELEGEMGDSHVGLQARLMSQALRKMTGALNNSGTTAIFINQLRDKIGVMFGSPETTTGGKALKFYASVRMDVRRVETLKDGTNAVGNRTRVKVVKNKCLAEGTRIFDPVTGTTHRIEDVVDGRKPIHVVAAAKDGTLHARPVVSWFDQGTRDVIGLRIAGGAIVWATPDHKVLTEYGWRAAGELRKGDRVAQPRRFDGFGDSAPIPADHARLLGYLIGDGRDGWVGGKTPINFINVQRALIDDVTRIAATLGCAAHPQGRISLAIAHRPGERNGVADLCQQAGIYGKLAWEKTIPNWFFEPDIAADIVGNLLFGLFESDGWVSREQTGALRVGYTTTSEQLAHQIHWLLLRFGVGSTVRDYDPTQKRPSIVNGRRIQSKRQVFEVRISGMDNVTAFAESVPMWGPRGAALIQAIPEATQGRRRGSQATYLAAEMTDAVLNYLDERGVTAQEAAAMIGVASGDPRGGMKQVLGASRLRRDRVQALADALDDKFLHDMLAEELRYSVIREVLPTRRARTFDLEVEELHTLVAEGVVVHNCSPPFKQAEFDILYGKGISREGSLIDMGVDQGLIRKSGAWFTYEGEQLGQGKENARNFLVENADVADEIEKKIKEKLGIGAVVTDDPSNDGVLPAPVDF
Mtb H37Rv – M. tuberculosis H37Rv growth inhibitors, H37Rv strain (AID 1626). M. tuberculosis H37Rv growth inhibition; higher % means a stronger effect. one-dose inhibition, % at 10 µM; IC50 in µM for titrated hits. 0.95% of 220,000 active;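 active = confirmed in a dose series; inconclusive = inhibition above 80% but not taken into the dose series; inactive = below 80% or under 30% at every dose of the series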;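 also: bacteria incubated seven days before Alamar blue readout; 0% = bacteria only wells and 100% = bacteria with antibiotic wells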
Arbovirus inh repeat – recorded beside Arbovirus inh, whose call it bears; inhibition, %; measured here: 10K subset replicate screen; many hits read low in the repeat;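 first of two repeat runs on a subset; 0% = infected and 100% = uninfected wells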
Active calls of the source: *; ? = inconclusive; . = not tested or not shown; & = joins results of further samples. Not all compounds are listed; count on the stated rates, not on these rows.

SMILES	Mtb betalactam	YopH PTP inh	Arbovirus inh	RecA intein inh	Mtb H37Rv	others
COc1ccc(Nc2nnc(Cc3ccccc3)c(=O)[nH]2)c(OC)c1	2	-3	1	-0.6	-11%	Arbovirus inh repeat=1
O=C(COC(=O)c1cc(-c2cccs2)nc2ccccc12)NC1CCS(=O)(=O)C1 (configuration not stated)	4	.	-3	-90	1%
O=S(=O)(Nc1ccc(-c2ccc3nncn3n2)cc1)c1ccccc1F	-6	.	.	0.9	.
COC(=O)CN1C(=O)NC2(CCCc3ccccc32)C1=O (configuration not stated)	18	.	.	-1.4	.
COc1cc(CN2CCNCC2)cc(OC)c1OC	-5	.	.	3.5	.
COc1cccc(C(=O)NCCCn2ccnc2)c1	0	.	-1	-0.5	5%
CC(=O)NCc1ccc(S(=O)(=O)N/N=C/c2ccccc2)cc1	1	-30	-4	-3.8	1%
O=C(CNCc1ccccc1)NCCCN1CCCC1=O	0	.	.	-1.9	.
Cc1ccc(C)c(NS(=O)(=O)c2ccc(OCC(=O)NCc3ccccn3)cc2)c1	-1	.	-3	0.4	2%
CCOc1ccc(-c2csc(NC(=O)c3ccc(S(=O)(=O)N4CCc5ccccc5C4)cc3)n2)cc1	3	-22	-3	-18	4%
COc1cc(CO)cc(-c2cc(CO)cc(OC)c2OC)c1OC	0	-17	0	-1.7	-11%
NC(=NCCc1c[nH]c2ccccc12)NC(=O)c1ccc(Cl)cc1	11	.	-34	7.7	1%
CCCCC/C=C\C/C=C\C/C=C\C/C=C\CCCC(=O)Nc1ccc(O)cc1	-4	.	-22	29	-9%&-4%
COc1ccc(NC(=O)NCCc2ccc(Cl)cc2)cc1OC	3	.	-1	0.2	1%
CCOC(=O)c1cnc(Nc2nc3ccccc3o2)nc1CN1CCN(C)CC1	.	-51	-5	.	.
CCC/C=N/NC(=O)c1ccc(F)cc1	-6	.	16	-1.3	5%
O=C(CN1C(=O)C2CC=CCC2C1=O)OCCN1C(=O)c2ccccc2C1=O (configuration not stated)	-2	-39	2	0.7	-2%
Cc1ccc(S(=O)(=O)Oc2ccccc2/C=N/Nc2ccc(C(=O)O)cc2)cc1	16	.	.	5.6	7%
O=Cc1cnc(N2CCN(c3ccccc3)CC2)s1	-2	.	5	-3.8	-3%
CCCCCCCN1C2=NCCCN2c2ccccc21	-3	.	-7	0.2	-1%
Cc1ccc(NC2=C(Cl)C(=O)OC2OC(=O)c2ccccc2C)cc1 (configuration not stated)	.	.	4	17	11%
CC(=O)Nc1cccc(NC(=O)CSc2nc(=O)n(CCCN3CCOCC3)c3c2CCC3)c1	-12	.	.	-0.1	.
CCOC(=O)c1ccc(OCCOc2cccc(C)c2)cc1	-15	.	.	-0.6	.
CC(C(=O)c1c[nH]c2ccccc12)N1CCOCC1 (configuration not stated)	0	.	.	-0.4	3%
COc1ccc(-c2c(C)n([O-])c3c([n+]2=O)CCCCC3)cc1	-2	-8	2	-0.5	3%
O=C(N/N=C/c1sc(N2CCCCC2)nc1-c1cccs1)C1CC1	3	.	3	.	7%
CCOC(=O)CCP(=O)(O)C(O)c1ccccc1 (configuration not stated)	-7	-24	-2	1.6	-2%
Cn1c(=O)c(C(=O)CN2CCCCCC2)c(N)n(Cc2ccccc2)c1=O	-1	.	-3	0.4	-8%
C=C(C)C(=O)N1CC2(CC(c3cccc(NC(=O)/C=C\C)c3)=NO2)C[C@H]1C(N)=O (some centres not stated)	0	.	.	0.5	-7%
CCCCNC(=O)COC(=O)c1cc(Br)ccc1Cl	98	-32	-1	-1.2	4.3µM*
C/C(=N\NC(=O)c1c(Br)c(C)nn1C)c1cccc(NC(=O)c2ccccc2F)c1	3	-20	-8	1.3	0%
O=C1CCCCC1Sc1nnc(Nc2ccccc2)s1 (configuration not stated)	-1	.	5	-3.7	6%
COc1ccccc1NC(=S)NCc1cccs1	4	-34	3	-0.7	-10%
COCCN1C(=O)N(c2ccc(OC)cc2)C(=O)C1CC(=O)Nc1cccc(F)c1 (configuration not stated)	2	.	.	-1.7	.
COc1cc(/C=C2\SC(=S)N(C(Cc3ccccc3)C(=O)O)C2=O)ccc1O (configuration not stated)	-7	.	.	11	-6%
CCOc1ccc2ccccc2c1/C=N/n1cncn1	-5	-22	0	-6.8	-5%
Cc1csc(NC(=O)c2nc3nc(C)cc(C)n3n2)n1	-8	-33	16	-2.5	-16%
O=C(Nc1ccc(-c2nc3ccccc3[nH]2)cc1)c1ccco1	-4	-34	-25	2.4	-15%
COc1ccc(NC(=O)c2cc3c(Cl)nc4ccccc4c3s2)cc1OC	-3	-29	10	0.3	0%
O=C(O)CSC1c2ccccc2C(=O)N1Cc1ccccc1 (configuration not stated)	-2	-12	-1	-2.0	-4%	Arbovirus inh repeat=1
CC(=O)Nc1cccc(C(=O)Nc2ccc(S(=O)(=O)NC3=NCCCCC3)cc2)c1	-4	.	.	-1.9	.
CC12CCC(C(=O)NCC3CCCO3)(OC1=O)C2(C)C (configuration not stated)	-4	-19	-1	4.1	-1%
O=c1c([N+](=O)[O-])c(N2CCOCC2)c2ccccc2n1-c1ccccc1	-7	.	2	3.7	8%
COC(=O)C(Cc1ccccc1)NC(=O)CNC(=O)c1ccccc1OC (configuration not stated)	2	.	.	-0.1	.
CC(C)Oc1ccc(CNC2CCOC(C)(C)C2)cc1 (configuration not stated)	-4	-31	-12	-0.8	-7%
O=C(Nc1ccc(S(=O)(=O)Nc2nccs2)cc1)c1cnc(Cl)c(Cl)c1	-4	.	.	0.7	12%
COc1ccc(N2C(=O)CC(NNC(=O)c3cccnc3)C2=O)cc1 (configuration not stated)	-6	.	.	0.1	-3%
CCC(C)c1ccccc1N=Cc1ccc2c(c1)OCO2 (configuration not stated)	-1	.	.	-0.1	.
COc1ccc(N=Cc2oc3ccc4ccccc4c3c2O)cc1	3	.	22	-10	2%
C/C(=N\NS(=O)(=O)c1ccc([N+](=O)[O-])cc1)c1ccc(NC(=O)c2ccco2)cc1	6	.	14	-1.0	-1%
CC(=O)NCCOC(=O)Nc1sc(=S)n(C)c1C	0	-9	-11	-7.1	-15%
CCn1nc(NS(=O)(=O)c2ccc([N+](=O)[O-])cc2)c2cc3cc(C)ccc3nc21	-2	.	.	0.5	.
Cc1ccc(/C([O-])=C(/C(=S)Nc2ccc(SC(F)F)cc2)[n+]2ccccc2)cc1[N+](=O)[O-]	4	.	25	7.5	59%
CN1CCN(c2ccc(S(=O)(=O)N3CCOCC3)cc2NC(=O)COc2ccc(F)cc2Cl)CC1	-4	.	.	-0.5	.
O=C(c1cccc(-c2ccccc2)c1)N1CC[C@@H](N2CCC(O)CC2)[C@H](O)C1	-1	.	.	0.1	.
C=CCSc1nc2ccccc2n1C(=O)/C=C/c1ccc(OC)c(OC)c1	15	-30	-5	-1.9	-2%
Cc1c(NC(=S)Nc2ccc(Cl)cc2)c(=O)n(-c2ccccc2)n1C	-1	.	0	-3.0	-6%
c1ccc(OCCCN2CCCC2)cc1	-9	-6	7	-3.0	-2%
Cc1nc(-c2ccc(S(=O)(=O)N3CCCCCC3)cc2)cs1	3	-13	-4	1.8	-11%	Arbovirus inh repeat=0
CC(C)c1ccc(NC(=O)CN2C(=O)c3ccccc3S2(=O)=O)cc1	6	.	.	0.5	.

Next compounds follow.
SMILES	Mtb betalactam	YopH PTP inh	Arbovirus inh	RecA intein inh	Mtb H37Rv	others
O=C(NCCC1=CCCCC1)C1CCC(=O)N(Cc2ccc(Cl)cc2)C1 (configuration not stated)	-16	.	.	3.3	.
COc1ccc(CCNC(=O)c2cc(COc3c(F)cccc3F)on2)c(OC)c1	?	.	.	2.7	.
O=C(COc1ccc(Cl)cc1)NCCN1CCCC1	0	.	.	1.4	.
O=C(CSc1nnnn1-c1cccnc1)NCc1cccs1	-3	-26	2	1.9	0%
COc1ccc(CC2CC(=O)N(c3ccc(C)cc3)C2=O)cc1 (configuration not stated)	0	.	.	-2.7	.
COc1cc(NS(=O)(=O)c2ccc(NC(=S)NC(=O)/C=C/c3ccc(F)cc3)cc2)ncn1	-8	.	.	0.8	-3%
COc1nc(-c2cccs2)cc(-c2ccc(C)cc2)c1C#N	41	-2	-17	-0.5	8%
O=C(CSc1nc2c(c(C(F)(F)F)n1)CCc1ccccc1-2)NCc1ccco1	0	-35	3	1.3	12%
CCOc1cc(/C=N\NC(=O)Cn2nc([N+](=O)[O-])cc2C)ccc1OCc1cccc2ccccc12	94	5	-12	1.7	?
COC(=O)CSc1nccc(-c2cccs2)n1	5	.	5	-0.9	10%
CC(C)(C)C(=O)N1CCN(c2ccc([N+](=O)[O-])cc2Cl)CC1	-10	-4	.	1.3	5%
Cc1noc(C)c1COc1cccc(C(=O)Oc2ccc3c(c2)OCO3)c1	99	-40	12	1.0	56%
O=c1c(Cl)c(N/N=C/c2ccc(Cl)cc2)cnn1-c1ccccc1	81	-25	14	5.0	6%
CCCc1ccc(OCC(=O)O)cc1	9	-17	0	0.3	-7%
Cc1nc(-c2ccc3c(c2)OCO3)cs1	-1	-35	-6	-1.5	-11%	Arbovirus inh repeat=-3
Cc1cc(C)n(-c2nc3ccccc3nc2N2CCN(C(=O)c3ccc(F)cc3)CC2)n1	-4	-25	2	1.0	-7%

Among those listed so far, 18 contain an aryl methoxy group:
SMILES	Mtb betalactam	YopH PTP inh	Arbovirus inh	RecA intein inh	Mtb H37Rv	others
COc1ccc(Nc2nnc(Cc3ccccc3)c(=O)[nH]2)c(OC)c1	2	-3	1	-0.6	-11%	Arbovirus inh repeat=1
COc1cc(CN2CCNCC2)cc(OC)c1OC	-5	.	.	3.5	.
COc1cccc(C(=O)NCCCn2ccnc2)c1	0	.	-1	-0.5	5%
COc1cc(CO)cc(-c2cc(CO)cc(OC)c2OC)c1OC	0	-17	0	-1.7	-11%
COc1ccc(NC(=O)NCCc2ccc(Cl)cc2)cc1OC	3	.	-1	0.2	1%
COc1ccc(-c2c(C)n([O-])c3c([n+]2=O)CCCCC3)cc1	-2	-8	2	-0.5	3%
COc1ccccc1NC(=S)NCc1cccs1	4	-34	3	-0.7	-10%
COCCN1C(=O)N(c2ccc(OC)cc2)C(=O)C1CC(=O)Nc1cccc(F)c1 (configuration not stated)	2	.	.	-1.7	.
COc1cc(/C=C2\SC(=S)N(C(Cc3ccccc3)C(=O)O)C2=O)ccc1O (configuration not stated)	-7	.	.	11	-6%
COc1ccc(NC(=O)c2cc3c(Cl)nc4ccccc4c3s2)cc1OC	-3	-29	10	0.3	0%
COC(=O)C(Cc1ccccc1)NC(=O)CNC(=O)c1ccccc1OC (configuration not stated)	2	.	.	-0.1	.
COc1ccc(N2C(=O)CC(NNC(=O)c3cccnc3)C2=O)cc1 (configuration not stated)	-6	.	.	0.1	-3%
COc1ccc(N=Cc2oc3ccc4ccccc4c3c2O)cc1	3	.	22	-10	2%
C=CCSc1nc2ccccc2n1C(=O)/C=C/c1ccc(OC)c(OC)c1	15	-30	-5	-1.9	-2%
COc1ccc(CCNC(=O)c2cc(COc3c(F)cccc3F)on2)c(OC)c1	?	.	.	2.7	.
COc1ccc(CC2CC(=O)N(c3ccc(C)cc3)C2=O)cc1 (configuration not stated)	0	.	.	-2.7	.
COc1cc(NS(=O)(=O)c2ccc(NC(=S)NC(=O)/C=C/c3ccc(F)cc3)cc2)ncn1	-8	.	.	0.8	-3%
COc1nc(-c2cccs2)cc(-c2ccc(C)cc2)c1C#N	41	-2	-17	-0.5	8%
